# From PubChem
# PMP22 txn prim = modulates PMP22 transcription in S16 Schwann cells. S16 Pmp22-F2sN Schwann cells (luciferase reporters placed in the Pmp22 gene), FLuc/NLuc coincidence luminescence, 24 h. Potency, µM (series often up to 57.5 µM), inactives show top-dose activity change, negative = inhibition, actives largely listed as inhibitors. 43,000 tested, 2% active. AID 1508649; active = clear falling dose curves in both reporters; inconclusive = both reporters move, but less clearly or upward; inactive = either reporter flat; the % is the NLuc reporter signal; note: % is set by controls: 0 for no effect and ±100 for the full control effect; some results filed as inactive show a strong effect at the top dose
#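 Rat S16 Pmp22-F2sN cells, 500-1,000/well in phenol red-free DMEM + 10% FBS, compound-treated 24 h (37C, 5% CO2). Luminescence: FLuc read, Stop&Glo added, NLuc read.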
# HTT promoter inh = HTT promoter inhibition; HEK293 HTT promoter firefly luciferase reporter (activity 0% = vehicle and -100% = no light), 24 h; Potency, µM (doses to about 57.5 µM), inactives show top-dose activity change, negative = inhibition, usual class: inhibitors; 48,000 tested, 0.93% active; AID 1508623; active = well fitted inhibition curve with a large enough effect; inconclusive = small, poorly fitted or top-dose-only effect; inactive = no such curve, though single readings can be large or run the other way; note: nearly all actives have a fitted effect of over 50% in size
#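 HEK293 cells carrying firefly luciferase reporters were seeded at 2,500 per well in Opti-MEM and cultured for 24 h. They were then treated with compounds at up to 57.5 uM final for 24 h at 37 degrees C before Dual-Glo luminescence readout.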
# The depositor's hits bear a star; u = inconclusive; x = not tested or not shown; & = joins results of further samples; [ ] = remark or other dose. Potency is the fitted concentration of half-maximal effect. Rows are unselected, and some 2.4% of all compounds hit somewhere here.
mol | PMP22 txn prim | HTT promoter inh
COc1ccc(CNC(=O)CCS(=O)(=O)c2ccc3c(c2)oc(=O)n3C)cc1 | 0.9% | -9.9%[11.5 µM]
Cc1ccccc1CNC(=O)C(=O)NCC(c1ccco1)S(=O)(=O)c1cccs1 (stereo not given) | -2.4% | -27.3%
CCc1ccccc1NC(=O)c1nc(-c2ccncc2)no1 | -0.9% | 8.8%
O=C(Cn1cc(C(=O)C2CCCCC2)c2ccccc21)Nc1ccccc1Cl | 9.46µM* | u
CC(=O)Nc1ccccc1-c1nc2ccccc2n(CC(=O)c2ccc(Br)cc2)c1=O | -15.0% | -13.1%
COc1ccc(C)cc1NC(=O)CC1NCCNC1=O (stereo not given) | 19.8% | u
CCOc1ccccc1NC(=O)Nc1ccccc1OCc1cc(=O)n2ccccc2n1 | -1.7% | 10.2%
Cc1ccc(C(=O)c2sc(Nc3ccc(F)cc3)c(C#N)c2N)cc1 | -22.1% | 2.8%
O=C1CCSC2(C(=O)N(Cc3ccc(F)cc3)c3ccccc32)N1c1ccc(F)c(F)c1 (stereo not given) | u | -26.2%
CCOC(=O)c1oc2ccc(S(=O)(=O)n3nc(-c4cc(OCC)c(OCC)c(OCC)c4)cc3N)cc2c1C | 6.7% | -19.2%
CCc1ccc(NC(=O)CSc2nnc(CC)c(CC)n2)cc1 | 16.6% | -8.1%
CCN1CCN(C(c2ccc(F)cc2)c2c(O)cc(C)n(CCOC)c2=O)CC1 (stereo not given) | 6.0% | -9.0%
Cc1ccc(CN(C(=O)COc2ccccc2[N+](=O)[O-])c2ccccn2)o1 | 13.4% | 2.8%
O=C(NCCc1ccccc1)c1ccc(Cn2c(=O)c3cccn3c3cccnc32)cc1 | -34.9% | -9.3%
CCOC(=O)C1CCN(C(c2ccccc2)c2c(O)cc(C)n(Cc3ccco3)c2=O)CC1 (stereo not given) | -26.5% | -0.3%
Cc1cn2c(=O)cc(COc3cccc(NC(=O)c4ccccc4C)c3)nc2s1 | u | -15.3%
O=C(Cn1nc(-c2ccc(Cl)cc2)c2ccccc2c1=O)Nc1cccc(Br)c1 | 20.6% | 0.0%
COc1cc(C(=O)NCC(c2ccc(Cl)cc2)N2CCOCC2)cc(OC)c1OC (stereo not given) | -6.8% | -3.9%
CN(C(=O)CCc1nc(-c2ccccc2F)no1)c1ccc(Cl)cc1 | 23.9% | -25.1%
CCOC(=O)c1c(S(=O)(=O)N2CCN(c3cccc(C(F)(F)F)c3)CC2)c(C)n(C)c1C | -1.9% | -13.9%[11.5 µM]
CCCCc1nc2ccccc2n2c(-c3ccc(C)cc3)c3c(=O)n(C)c(=O)n(C)c3c12 | u | -7.5%[11.5 µM]
O=C(Nc1ccc(F)cc1F)c1ccc2c(=O)n3c(nc2c1)CCCCC3 | -12.8% | 15.0%
CCOc1ccccc1C1CC(=O)Oc2c1c(=O)n(C)c1ccccc21 (stereo not given) | -3.4% | -2.3%
Cc1ccccc1OCC(=O)OCc1cc(=O)n2nc(-c3cccs3)sc2n1 | 5.6% | -5.5%
O=C(NCc1ccccc1Cl)c1cc2c(s1)-c1ccc(Cl)cc1SC2 | 15.1% | -0.8%

# Continued, starting with the last 3 of the part before.
mol | PMP22 txn prim | HTT promoter inh
CCOc1ccccc1C1CC(=O)Oc2c1c(=O)n(C)c1ccccc21 (stereo not given) | -3.4% | -2.3%
Cc1ccccc1OCC(=O)OCc1cc(=O)n2nc(-c3cccs3)sc2n1 | 5.6% | -5.5%
O=C(NCc1ccccc1Cl)c1cc2c(s1)-c1ccc(Cl)cc1SC2 | 15.1% | -0.8%
Cc1ccc2nc(N3CCN(C(=O)C4COc5ccccc5O4)CC3)sc2c1 (stereo not given) | -8.2% | 19.7%
COc1ccc(NC(=O)CN(C)S(=O)(=O)c2ccc3[nH]c4c(c3c2)CCCC4)cc1OC | -20.5% | u
COc1ccc(CNC(=O)c2cc(-c3cccs3)nc3ccccc23)c(OC)c1 | -4.5% | -4.3%
CCOc1ccc(NC2SC(=O)N(Cc3ccccc3)C2=O)cc1 (stereo not given) | 8.3% | 1.4%
O=C(c1ccc(OCCN2CCCCC2)cc1)c1c(-c2ccc(O)cc2)sc2cc(O)ccc12 | x | -5.5%&-2.5%
CCC1CCCCN1C(=O)c1nn(-c2ccc(C)cc2)c(=O)c2c1c1ccccc1n2C (stereo not given) | u | 2.1%
O=c1[nH]c(SCc2ccc(F)cc2)nc2c1CCCC2 | -4.3% | -20.2%
Cc1ccc(CNC(=O)c2cc3cc(C)ccc3n2C)cc1 | 48.0% | -23.1%
CCOC(=O)c1ccccc1NC(=O)COC(=O)CC(C)(C)CC1=NS(=O)(=O)c2ccccc2N1 | u | u
O=C(CN1CCSc2ccccc21)NCc1ccccc1F | -43.6% | -6.5%
CCn1cc(C(=O)NCCCN2CCCC(C)C2)c(=O)c2cc(S(=O)(=O)N(C)C3CCCCC3)ccc21 (stereo not given) | u | -3.4%
Cc1ccc2nc(CSc3nnc(NC(=O)C(C)C)s3)cc(=O)n2c1 | -1.1% | -2.0%
Cc1ccc(NC(=O)CSc2nc(C)c(Cc3ccccc3)c(=O)[nH]2)cc1C | 8.2% | -13.6%
Cc1c(C(=O)N2CCCC2)oc2c1-c1nn(CC(=O)NCc3ccc(OC(C)C)cc3)cc1CC2 | u | u
COc1cccc(C2C(C(=O)Nc3ccc(C)cc3C)=C(C)Nc3c(C(=O)Nc4cccc(C)c4)cnn32)c1OC (stereo not given) | 2.0% | -10.5%
CCCCn1c(SCC(=O)c2ccccc2)nc2c(sc3ccccc32)c1=O | u | -5.8%
CCSC1=NC2(CCN(C(=O)NC3CCCCC3)CC2)N=C1c1ccc(C)c(C)c1 | 6.4% | -18.2%[11.5 µM]
Cc1ccc(-c2nc3ccccc3o2)cc1NC(=O)Cc1ccc(Cl)cc1 | 2.3% | -6.1%
CC(=O)N1CCN(c2ccc(OC[C@H]3CO[C@](Cn4ccnc4)(c4ccc(Cl)cc4Cl)O3)cc2)CC1 | x | -26.2%
O=C(Nc1ccccc1)N(Cc1c[nH]c2ccccc12)C1CCCCCC1 | u | 28.1%
CCC1CN(C(=O)N2CCC(C(=O)N3CCN(c4ccccc4)CC3)CC2)c2ccccc2O1 (stereo not given) | -22.5% | -22.8%
CCCc1nn2c(=O)cc(COC(=O)c3cccs3)nc2s1 | -12.0% | 38.9%[activator]
CCCCN(CC)CCNC(=O)Cn1cc2c(n1)-c1c(oc(C(=O)N3CCCC3)c1C)CC2 | u | -0.6%
COc1cccc(-n2c(SCC(=O)c3ccccc3)nc3c([nH]c4ccccc43)c2=O)c1 | u | 1.9%
COc1ccccc1N1CCN(C(CNC(=O)C(=O)NCCN(C)C)c2cccnc2)CC1 (stereo not given) | -6.4% | -0.2%

# (next part)
mol | PMP22 txn prim | HTT promoter inh
CCOCCCNC(=O)c1cc2c(=O)[nH]c3ccccc3c2n1C | -14.4% | 8.2%
CCOC(=O)N1CCN([N+]([O-])=NOc2cc(ON=[N+]([O-])N3CCN(C(=O)OCC)CC3)c([N+](=O)[O-])cc2[N+](=O)[O-])CC1 | x | -0.9%
CCc1ccc(NC(=O)CSc2nc(-c3ccccc3)no2)cc1 | u | 21.3%
Cc1ccc(CNC(=O)c2cc(C3CC3)nc3c2c(C)nn3-c2cccc(Cl)c2C)cc1 | -1.1% | 2.8%
CCc1nn(CCCC(=O)N2CCN(c3ccc(OC)cc3)CC2)c(=O)c2cc3occc3n12 | u | -18.0%
COc1ccc(OC)c(Nc2sc(C(=O)c3ccccc3)c(N)c2S(=O)(=O)c2ccccc2)c1 | -15.5% | -18.0%
Cc1ccc(-n2cnc3cc(C(=O)NCc4ccc(F)cc4)ccc32)c(C)c1 | -7.8% | u
Cc1ccc(NC(=O)COc2ccc3oc4c(c3c2)CCCC4)cc1C | u | -3.2%
Cc1cc2c(cc1NS(=O)(=O)c1ccc(F)cc1)n(C)c(=O)c(=O)n2C | -19.5% | 1.6%
CCc1nn(CC(=O)N(C)Cc2ccccc2)c(=O)c2cc3sccc3n12 | u | -12.4%
CN[C@H]1[C@@H](O[C@@H]2[C@H](O[C@@H]3[C@@H](O)[C@@H](O)[C@@H](N=C(N)N)[C@@H](O)[C@@H]3N=C(N)N)O[C@H](C)[C@@]2(O)C=O)O[C@@H](CO)[C@@H](O)[C@H]1O | x | 7.2%[19.1 µM]
CC(=O)c1ccc(NC(=O)c2cccc(NC(=O)N3CCSc4ncccc43)c2)cc1 | -5.8% | -18.8%
CC(C)(C)C1CCc2c(sc3nc(-c4cc5cc(Cl)ccc5oc4=O)[nH]c(=O)c23)C1 (stereo not given) | 0.0% | -11.3%
CCc1nnc(NC(=O)CSc2nc3c([nH]c4ccccc43)c(=O)n2-c2ccc(F)cc2)s1 | u | -13.4%
COc1cccc(-c2n[nH]c3c2C(c2cccc(O)c2)N(C)C3=O)c1 (stereo not given) | u | 17.8%
Nc1c(C(=O)NCc2ccc(Cl)cc2)sc2nc(-c3ccc(F)cc3)ccc12 | u | -10.8%
CCOc1ccc(-c2cc3c(=O)n(CC(=O)NCc4ccc(F)cc4)ccn3n2)cc1 | u | 70.2%[activator]
CCCN(C(=O)COc1cc(=O)n(CC)c2ccccc12)c1ccc(C(C)C)cc1 | u | u
CN1CCSc2ccc(C(=O)NCc3ccccc3F)cc21 | -25.7% | 37.4%[activator]
COc1cccc(C(=O)N2c3nc(-c4ccco4)nn3C3(CCCCC3)[C@@H]3CCCC[C@@H]32)c1 | -27.7% | -33.4%
Cc1ccc(CNC(=O)CCc2cn(Cc3ccc(C)cc3)c3ccccc23)cc1 | -8.7% | -16.5%
CC(=O)c1cccc(-n2c(=O)c3c4c(sc3n(Cc3ccccc3Cl)c2=O)CN(C(C)=O)CC4)c1 | -10.7% | 1.0%
COc1cccc(CNC(=O)c2ccc3c(c2)N(C)C(=O)C2CCCCN32)c1 (stereo not given) | -18.2% | -13.8%
CC(=O)Nc1ccc(-c2nnc3n(Cc4ccc(C)cc4)c(=O)c4ccccc4n23)cc1 | -5.3% | -5.1%
CCOC(=O)CNC(=O)c1cc2c(=O)n3cccc(C)c3nc2s1 | -10.5% | 25.4%

# Compounds shown so far that contain a nitro group on carbon:
mol | PMP22 txn prim | HTT promoter inh
Cc1ccc(CN(C(=O)COc2ccccc2[N+](=O)[O-])c2ccccn2)o1 | 13.4% | 2.8%
CCOC(=O)N1CCN([N+]([O-])=NOc2cc(ON=[N+]([O-])N3CCN(C(=O)OCC)CC3)c([N+](=O)[O-])cc2[N+](=O)[O-])CC1 | x | -0.9%

# Further results
mol | PMP22 txn prim | HTT promoter inh
CCC(=O)Nc1ccc(CC)cc1-c1nc2ccccc2n(CC(=O)c2ccc(OC)cc2)c1=O | -1.2% | -0.8%
Cc1cc(C)c2c(n1)nn1c(C)c(CCC(=O)NCc3ccc(Cl)cc3)c(C)nc21 | -16.5% | 4.8%
CCOC(=O)c1c(C)oc2nc(C)nc(N3CCN(c4ccccc4)CC3)c12 | -5.1% | u
Cc1nc2sccn2c(=O)c1S(=O)(=O)Nc1ccc(N2CCOCC2)cc1 | -26.3% | -4.8%
COc1ccc(CNC(=O)Cc2coc3ccc(C)cc23)cc1 | -12.7% | -15.7%
CCOc1ccccc1NC(=O)Cn1c(=O)n(C(C)C)c(=O)c2oc3ccccc3c21 | -9.4% | -6.3%
CCOCCCn1c(SCC(=O)Nc2ccccc2Cl)nc2c(oc3ccccc32)c1=O | u | -14.1%
Clc1ccc(-c2cc3ncc4c(n3n2)-c2ccccc2OC4)cc1 | -18.6% | 21.8%
O=c1[nH]c(SCc2ccc(Br)cc2)nc2c1CCCC2 | -10.1% | -22.8%
O=C(NCc1ccccc1Cl)c1ccc(CSCc2ccccc2Cl)o1 | -40.7% | -17.9%
Cc1nc2cc(-c3cccc(F)c3)nn2c(C)c1CCC(=O)N1CCN(c2ccc(F)cc2)CC1 | u | u
CCN(c1ccccc1)S(=O)(=O)c1nnc(NC(=O)C(C)Oc2ccccc2)s1 (stereo not given) | -8.5% | u
CCOc1ccc(-c2cc3c(=O)n(CC(=O)Nc4cc(F)ccc4C)ccn3n2)cc1 | -146.5% | 37.0%[activator]
COC(=O)c1c(Oc2ccc(Br)cc2)nnc(-c2ccccc2)c1-c1ccccc1 | u | -17.4%
Cc1ccc(NC(=O)Cn2cnc3sc(C(=O)O)c(C)c3c2=O)cc1Cl | 27.4% | -4.0%
Cc1ccccc1Nc1c(-c2ccccc2O)nc2sccn12 | 5.0% | -21.6%
CCOC(=O)c1cc(-c2ccccc2)n(CCC(=O)NCCc2cccc(C)c2)c1C | -19.0% | u
COc1ccc(CNC(=O)c2ccc3c(c2)N(Cc2cc(C)ccc2C)C(=O)CS3)cc1 | -25.3% | -15.7%
CCN1CCN(CC(=O)Nc2ccc(-c3cccc4c(=O)cc(N5CCOCC5)oc34)c3sc4ccccc4c23)CC1 | x | -21.2%
O=C(COc1ccccc1)Nc1sc2c(c1C(=O)Nc1ccccc1Cl)CCCCC2 | 43.7% | -19.2%[11.5 µM]
O=C(CSc1n[nH]c(-c2ccccc2)n1)N1CCN(c2ccc(F)cc2)CC1 | -5.4% | -2.9%
